# Hedgehog cleavage – Hh protein inhibition, biochemical readout – plate reader, single concentration, primary screen (AID 588832) | Biochemical plate reader assay, Hedgehog inhibition; active compounds read high | inhibition, % at 30.3 µM | 8,000 tested, under 10 active; in the data active = inhibition from about 57%;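 note: 0% = neutral control wells and 100% = positive control wells; cholesterol-driven self-cleavage of fly hedgehog protein by fluorescence polarization; read one hour after cholesterol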
# Starred values were filed as active, the others as inactive. An excerpt (hit frequency here may not be typical).
SMILES,Hedgehog cleavage
CCN1C(=O)c2ccccc2S(=O)c2ccc(C(=O)NCCCN3CCCC3=O)cc21 (stereo unspecified),-4
COc1cccc(NC(=O)CSc2nc3ccccc3nc2N2CCCC2)c1,0
CCCN1CCN(C(=O)c2cc3c(s2)-c2ccccc2OC3)CC1,-8
Cc1cccc(NC(=O)c2cccc(NC3=NC4CS(=O)(=O)CC4S3)c2)c1 (stereo unspecified),4
COc1ccc(-n2c(Cc3cccn3C)nnc2SCC(=O)Nc2ccc(C)c(Cl)c2)cc1,15
Cc1nn(C(=O)c2cccs2)c(N)c1-c1ccccc1,8
Cc1oc2cc3oc(=O)c(CCC(=O)N4C[C@H]5C[C@@H](C4)c4cccc(=O)n4C5)c(C)c3cc2c1C,7
CC[C@H]1c2[nH]c3ccccc3c2C[C@@H]2C(=O)N(c3ccc(F)cc3)C(=O)N21,3
COc1ccc(-n2c(Cc3cccn3C)nnc2SCC(=O)Nc2ccccc2C)cc1,24
COc1ccc(C2c3[nH]c4ccccc4c3C[C@H]3C(=O)N(c4ccccc4C(=O)N4CCC[C@@H]4C(=O)O)C(=O)N23)cc1 (stereo partly specified),0
C[C@@H](C(=O)NCCc1ccccc1F)N1C(=O)N2CCc3c([nH]c4ccccc34)[C@@]2(C)C1=O,5
CCOCCn1c(CN2CCN(C)CC2)nc2c1c(=O)n(C)c(=O)n2C,0
NC(=O)C1CCN(C(=O)C2CCN(S(=O)(=O)c3ccccc3)CC2)CC1,4
COc1ccc(-c2noc(N3CCCC(C(=O)Nc4ccc(F)cc4F)C3)n2)cc1 (stereo unspecified),5
CCN1CCN(c2ncnc3c2sc(=S)n3-c2ccccc2)CC1,-5
CCOC(=O)c1ccc(NC2c3ccccc3C(=O)N2c2cccnc2)cc1 (stereo unspecified),7
Cc1ccc(CCNC(=O)c2cccc(NC3=NC4CS(=O)(=O)CC4S3)c2)cc1 (stereo unspecified),10
COc1ccc(-c2cc(-c3ccccc3)nc3ncnn23)cc1,9
CC(C)(O)CCc1c(-c2ccc(O)cc2O)oc2c3c(cc(O)c2c1=O)OC(C)(C)C=C3,2
Cc1nc2sccn2c(=O)c1S(=O)(=O)NCCc1ccccc1,4
Cc1ccc(C)c(N2CCN(S(=O)(=O)c3ccc4[nH]c(=O)ccc4c3)CC2)c1,14
O=c1c(Cc2ccccc2O)c(O)nc2n1CCCS2,3
COC(=O)C1CCN(S(=O)(=O)c2c(C)n(C)c(=O)n(C)c2=O)CC1,8
CC1CN(c2cc(=O)n(-c3cccc(Br)c3)c(=O)[nH]2)CC(C)O1 (stereo unspecified),13
CCOC(=O)N1CCC(NC(=O)c2cc(C(=O)NC3CCCC3)ccc2CO)CC1,2

# Filtered by structure, the entries above with a carbonyl joined to an NH by a bond outside any ring (10)
SMILES,Hedgehog cleavage
CCN1C(=O)c2ccccc2S(=O)c2ccc(C(=O)NCCCN3CCCC3=O)cc21 (stereo unspecified),-4
COc1cccc(NC(=O)CSc2nc3ccccc3nc2N2CCCC2)c1,0
Cc1cccc(NC(=O)c2cccc(NC3=NC4CS(=O)(=O)CC4S3)c2)c1 (stereo unspecified),4
COc1ccc(-n2c(Cc3cccn3C)nnc2SCC(=O)Nc2ccc(C)c(Cl)c2)cc1,15
COc1ccc(-n2c(Cc3cccn3C)nnc2SCC(=O)Nc2ccccc2C)cc1,24
C[C@@H](C(=O)NCCc1ccccc1F)N1C(=O)N2CCc3c([nH]c4ccccc34)[C@@]2(C)C1=O,5
NC(=O)C1CCN(C(=O)C2CCN(S(=O)(=O)c3ccccc3)CC2)CC1,4
COc1ccc(-c2noc(N3CCCC(C(=O)Nc4ccc(F)cc4F)C3)n2)cc1 (stereo unspecified),5
Cc1ccc(CCNC(=O)c2cccc(NC3=NC4CS(=O)(=O)CC4S3)c2)cc1 (stereo unspecified),10
CCOC(=O)N1CCC(NC(=O)c2cc(C(=O)NC3CCCC3)ccc2CO)CC1,2

# (cont.)
SMILES,Hedgehog cleavage
Cc1ccc(Cl)cc1NC(=O)[C@@H]1CCC(=O)N1C1OC(=O)c2ccccc21 (stereo partly specified),5
COc1ccc(CNC(=O)COc2cc(O)c3c(c2)OC(C)(C)CC3=O)cc1,7
CCOc1ccc(C2c3c(oc4ccccc4c3=O)C(=O)N2c2ccc(C)cn2)cc1OC (stereo unspecified),12
CCOC(=O)C1CCN(C(=O)CS(=O)(=O)Cc2nc(-c3ccccc3Cl)oc2C)CC1,11
Cc1ccc2c(c1)N(C(=O)CCC(=O)NCCCN1CCC(Cc3ccccc3)CC1)CCO2,11
CCOC(=O)c1ccccc1NC(=O)Cn1cnc2c(nnn2-c2ccc(C)cc2)c1=O,11
Cc1noc(/C=C/c2ccco2)c1S(=O)(=O)N1CCC(C(=O)N2CCc3ccccc32)CC1,8
CC(=O)N1CCOc2cc(S(=O)(=O)NCc3ccc(F)cc3)c(C)cc21,15
Cn1c(C(=O)NCCCN2CCOCC2)cc2c(=O)n(C)c3ccccc3c21,6
Cc1coc2cc3oc(=O)c(CCC(=O)NCCCN4CCOCC4)c(C)c3cc12,5
O=C1c2ccccc2C(Nc2ccc(F)c(Cl)c2)N1Cc1ccco1 (stereo unspecified),0
Cc1ccccc1-c1nc(CS(=O)CC(=O)NCCN2CCOCC2)c(C)o1 (stereo unspecified),0
O=C(Nc1ccc(Cl)cc1)c1ccc2c(=O)n3c(nc2c1)CCCCC3,4
COCCn1c(SCC(=O)OCc2ccccc2)nc2c1c(=O)[nH]c(=O)n2C,2
CC(C)(O)[C@@H]1[C@@H]2C[C@@]3(CC[C@]4(C)C(CCC5[C@@]6(C)CC[C@H](O)C(C)(C)C6CC[C@]54C)[C@@H]13)C(=O)O2 (stereo partly specified),7
Cn1c(Cn2c(=O)sc3ccccc32)nnc1SCC(=O)Nc1ccc(F)cc1,8
COc1cccc(C2CC(c3c(Cl)cccc3Cl)n3nc(N)nc3N2)c1 (stereo unspecified),29
CCC(=O)N1CCN=C1SCc1ccc(F)cc1,5
Cc1cc(C)n2nc(CNS(=O)(=O)c3ccc(F)c(C)c3)nc2n1,13
C=C/C(C)=C/CC1C(=C)CCC2C(C)(C(=O)O)CCCC12C (stereo unspecified),5
CC(NC(=O)Cc1ccc(NC2=NC3CS(=O)(=O)CC3S2)cc1)c1ccccc1 (stereo unspecified),2
Cc1cccc(-c2nc(CS(=O)CC(=O)N3CCc4ccccc4C3)c(C)o2)c1 (stereo unspecified),15
Cc1cc(Nc2ccc3c(c2)OCCO3)n2nc(C)nc2n1,15
CCOC(=O)C(C)Oc1cccc2c(=O)n(CC(=O)NCc3ccc4c(c3)OCO4)ccc12 (stereo unspecified),7
O=C(CN1CCOc2ccccc21)NC1CCCCCCC1,25
SMILES,Hedgehog cleavage
CCN(CC)S(=O)(=O)c1ccc(C(=O)NCc2ccc3c(c2)cc(C)n3C)cc1,4
CCc1ccc(S(=O)(=O)NCCc2csc(-c3cccnc3)n2)s1,19
COc1ccc(S(=O)(=O)NCc2nc3nc(C)cc(C)n3n2)cc1,6
CCN1CCN(C(=O)c2oc(=O)c3ccccc3c2-c2ccc(C)cc2)CC1,21
Cc1ccc(Nc2c(-c3ccc(C)o3)nc3cnccn23)cc1,9
COc1cccc(NC(=O)c2cc(S(=O)(=O)N3CCc4ccccc43)cn2C)c1,2
CCN(CC)C(=O)c1ccc2c(c1)N(Cc1ccccc1)C(=O)CS2=O (stereo unspecified),17
Cc1oc(-c2ccccc2F)nc1CS(=O)CC(=O)NCc1ccc(F)cc1 (stereo unspecified),5
CC(=O)c1ccc(NC(=O)c2cnn3ccccc23)cc1,-3
CC(C)c1nnc(NC(=O)c2cccs2)s1,3
Cc1cc(=O)oc2c(C)c(OCC(=O)NCC3CCC(C(=O)O)CC3)ccc12 (stereo unspecified),2
COc1ccc(N2C(=O)C3CCCN3C2c2ccccc2F)cc1 (stereo unspecified),17
Cc1nc(N2CCCCC2)c2sc(=S)n(C)c2n1,20
COc1cc(-c2nc(C(=O)NC3CCN(Cc4ccccc4)CC3)cc3c2[nH]c2ccccc23)cc(OC)c1OC,5
COc1cccc(Cn2nnc(C(=O)Nc3cc(C)ccc3OC)c2N)c1,11
Cc1ccc(C(c2sc3ncnn3c2O)N2CC(C)CC(C)C2)cc1 (stereo unspecified),5
COc1ccc(OC)c2sc(NC(=O)C3=COCCO3)nc12,5
O=c1c(Oc2ccccc2)coc2cc(O)cc(O)c12,5
COC(=O)c1c(C)cc(O)c(C=O)c1O,5
COC(=O)COc1cccc2c(=O)n(CC(=O)NCCc3ccccc3)ccc12,4
Cc1cc2[nH]c(=O)c(=O)[nH]c2cc1S(=O)(=O)Nc1ccccc1F,15
CC(=O)O[C@@H]1[C@H](Oc2c(O)c(C)c3c4c2[C@H](C)CC[C@H]4[C@H](C)C[C@@H]3C=C(C)C)O[C@@H](C)[C@@H](O)[C@H]1O,12
COc1ccc(-c2nc3cnccn3c2Nc2ccc(C)cc2)cc1,6
C=C(C)C(O)CC/C(C)=C/Cc1c(O)ccc(C(=O)/C=C/c2ccc(O)cc2)c1O (stereo unspecified),5
Cc1cscn1,7

# Three of the entries above in order of their number in Hedgehog cleavage, rising.
SMILES,Hedgehog cleavage
COC(=O)c1c(C)cc(O)c(C=O)c1O,5
CC(C)(O)[C@@H]1[C@@H]2C[C@@]3(CC[C@]4(C)C(CCC5[C@@]6(C)CC[C@H](O)C(C)(C)C6CC[C@]54C)[C@@H]13)C(=O)O2 (stereo partly specified),7
COC(=O)C1CCN(S(=O)(=O)c2c(C)n(C)c(=O)n(C)c2=O)CC1,8

# Following part:
SMILES,Hedgehog cleavage
O=C(CSc1nnc(Cn2c(=O)sc3ccccc32)n1-c1ccccc1)NCC1CCCO1 (stereo unspecified),15
Cc1ccc(S(=O)(=O)NC(C)C(c2cccs2)N2CCOCC2)cc1 (stereo unspecified),10
CCn1c(SCC(=O)NCCc2ccccc2)nc2c(c1=O)SC(C)C2 (stereo unspecified),5
COc1ccc(NC2c3ccccc3C(=O)N2c2ccccn2)cc1Cl (stereo unspecified),5
COc1ccc(CN(C(=O)c2ccccc2Br)C2CCS(=O)(=O)C2)cc1 (stereo unspecified),5
CCCc1cc(=O)oc2cc(C)cc(OCC(=O)N3C[C@H]4C[C@@H](C3)c3cccc(=O)n3C4)c12,3
CC1(C)C2CC[C@]3(C)C(CC=C4[C@@H]5C[C@@](C)(CO)[C@@H](O)C[C@]56C[C@@H](OC6=O)[C@]43C)[C@@]2(C)CC[C@@H]1O (stereo partly specified),3
CN1CCN(C(=O)C2CCCCC2C(=O)O)CC1 (stereo unspecified),15
CCC(C(=O)OC)n1cnc2c(nnn2-c2ccc(C)cc2)c1=O (stereo unspecified),4
CC(=O)c1sc(NC(=O)C2COc3ccccc3O2)nc1C (stereo unspecified),10
O=C(CCn1c(=O)oc2ccccc21)NCc1ccc2c(c1)OCO2,5
COc1ccccc1CNC(=O)[C@H](C)NC(=O)C1CCN(C(=O)[C@@H](N)Cc2ccccc2)CC1,0
CC(CNC(=O)c1ccc(NC2=NC3CS(=O)(=O)CC3S2)cc1)c1ccccc1 (stereo unspecified),5
COc1ccc(N(C(=O)c2ccncc2)S(=O)(=O)c2ccc(Cl)cc2)cc1,-1
CC(Sc1nc2ccccc2s1)C(=O)Nc1nnc(C(C)C)s1 (stereo unspecified),4
Cc1cc(NS(=O)(=O)c2ccc(NC(=O)c3cnc4scc(C)n4c3=O)cc2)nc(C)n1,6
CC1=C(C(=O)NC2CCC(C)CC2)C2(CCC(C)CC2)OC1=O (stereo unspecified),4
CC1CCCN(c2nc3c(c(=O)[nH]c(=O)n3C)n2CCSc2nc3ccccc3o2)C1 (stereo unspecified),5
COc1ccc(CNC(=O)[C@H](Cc2c[nH]c3ccccc23)NC(=O)[C@@H]2Cc3ccccc3CN2)cc1,4
COc1ccc(NC(=O)c2nc3nc(C)cc(C(F)F)n3n2)cc1OC,-4
CN(C)C(=O)c1nnc(Cc2ccc(Cl)cc2)o1,13
CC1CCCN(C(=O)CCS(=O)(=O)c2cc3c(cc2Cl)NC(=O)CO3)C1 (stereo unspecified),5
COC(=O)c1ccccc1NC(=O)[C@@H]1CCC(=O)N1C1OC(=O)c2c1ccc(OC)c2OC (stereo partly specified),3
CCOC(=O)C(C)Oc1cccc2c(=O)n(CC(=O)Nc3cccc(OC)c3)ccc12 (stereo unspecified),4
Cn1cccc1Cc1nnc(SCC(=O)Nc2ccc(F)cc2F)n1-c1ccc(F)cc1,11
SMILES,Hedgehog cleavage
Cc1cc(=O)n2nc(N3CCCC(C(=O)Nc4ccc(C)c(C)c4)C3)sc2n1 (stereo unspecified),11
CCOc1ccccc1C1CC(c2ccc(Br)cc2)Nc2nc(N)nn21 (stereo unspecified),22
CCOC(=O)c1c(NC(=O)CSc2nnc(-c3c[nH]c4ccccc34)n2CCOC)sc2c1CCCCC2,8
Cc1ccccc1C1CC(c2ccc(F)cc2)Nc2nc(N)nn21 (stereo unspecified),21
CCCc1cc(=O)oc2cc(OCC(=O)NCCc3c[nH]c4ccccc34)ccc12,14
CCCCOC(=O)COc1ccc(Cl)cc1Cl,4
Cc1ccccc1NC(=O)Cn1nnc(S(=O)(=O)c2ccc(C(C)(C)C)cc2)c1N,17
Cn1c(Cn2c(=O)sc3ccccc32)nnc1SCc1ccccc1,11
COc1ccc(CNC(=O)C2=CC(c3ccc(OC)c(OC)c3)=NS(=O)(=O)N2C)cc1,10
CSc1oc(-c2ccco2)nc1S(=O)(=O)c1ccccc1,24
CC1(C)CC(=O)N(CC(=O)O)c2ccccc2S1(=O)=O,15
Cc1c(NC(=O)NCCN2C(=O)C3C4C=CC(C4)C3C2=O)c(=O)n(-c2ccccc2)n1C (stereo unspecified),17
CCOC(=O)C1CCN(S(=O)(=O)c2cc3c(cc2C)NC(=O)CO3)CC1,4
CN1C(=O)C(C)(C)c2cc(S(=O)(=O)N3CCN(c4ccccc4)CC3)ccc21,7
O=C(CSc1nc2ccccc2o1)NCc1ccc2c(c1)OCO2,19
